Yeast UUG start – modulators of yeast start codon fidelity, primary screen, whole organism, S. cerevisiae, single point, plate reader | S. cerevisiae UUG-firefly luciferase reporter, luminescence/redox ratio | AID 602363, 2012 | activity score, % at 18.7 µM | 0.13% of 350,000 active;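 active = replicate mean at a twofold rise or more, about +100% in these data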;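 note: firefly luciferase made from a UUG start codon reports start codon fidelity; reporter light over untreated wells divided by growth signal over untreated wells; some hits fall short of that in this replicate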
Starred values were filed as active, the others as inactive. An excerpt; rates above refer to the full screens.

A first look, 2 compounds:
SMILES	Yeast UUG start
Cc1cccc(S(=O)(=O)N2CC[C@@H]3[C@@H](CO)Nc4ccc(C#Cc5cccc(F)c5)cc4[C@@H]32)c1	-3
C[C@H]1CN([C@@H](C)CO)C(=O)c2cccc(NS(=O)(=O)c3cn(C)cn3)c2O[C@H]1CN(C)Cc1ccc(Oc2ccccc2)cc1	5

This part in full, previewed entries included:
SMILES	Yeast UUG start
Cc1cccc(S(=O)(=O)N2CC[C@@H]3[C@@H](CO)Nc4ccc(C#Cc5cccc(F)c5)cc4[C@@H]32)c1	-3
C[C@H]1CN([C@@H](C)CO)C(=O)c2cccc(NS(=O)(=O)c3cn(C)cn3)c2O[C@H]1CN(C)Cc1ccc(Oc2ccccc2)cc1	5
C[C@@H]1CN([C@H](C)CO)C(=O)Cc2cc(NS(=O)(=O)c3ccccc3)ccc2O[C@H]1CN(C)C(=O)NC1CCCCC1	4
CO[C@@H]1CN(C)C(=O)c2ccc(NC(=O)c3cnccn3)cc2OC[C@@H](C)N(C(=O)C2CC2)C[C@@H]1C	-9
C[C@H](CO)N1C[C@H](C)[C@H](CN(C)C(=O)Nc2cccc3ccccc23)Oc2ccc(NC(=O)Cc3cn(C)c4ccccc34)cc2C1=O	-9
Cc1cccc(-c2ccc([C@@H]3[C@@H](CO)N4CCCCN(CCC(F)(F)F)C[C@@H]34)cc2)c1	-9
Cc1cccc(-c2ccc([C@@H]3[C@@H](CO)N4CCCCN(S(=O)(=O)c5ccccc5F)C[C@H]34)cc2)c1	-5
C[C@@H]1CN([C@@H](C)CO)C(=O)c2cc(NC(=O)Nc3ccc(C(F)(F)F)cc3)ccc2O[C@H]1CN(C)CC1CCCCC1	-1
CO[C@@H]1CN(C)C(=O)c2cc(NC(=O)Nc3ccccc3)ccc2OC[C@@H](C)N(C(=O)Nc2c(C)noc2C)C[C@@H]1C	29
CO[C@@H]1CN(C)C(=O)c2cc(NC(=O)NC3CCCCC3)ccc2OC[C@@H](C)NC[C@@H]1C	-9
C/C=C/c1ccc([C@@H]2[C@H]3CN(C(=O)Nc4cc(F)ccc4F)CCCCN3[C@H]2CO)cc1	16
COc1cccc(C(=O)Nc2ccc3c(c2)OC[C@H](C)N(CC2CC2)C[C@H](C)[C@H](OC)CN(C)C3=O)c1	2
Cc1ccc(S(=O)(=O)Nc2ccc3c(c2)C(=O)N([C@H](C)CO)C[C@@H](C)[C@H](CN(C)C(=O)NC2CCCCC2)O3)cc1	3
COc1ccc(CN(C)C[C@H]2Oc3c(NC(=O)Nc4ccc(C(F)(F)F)cc4)cccc3C(=O)N([C@H](C)CO)C[C@@H]2C)cc1	8
Cc1noc(C)c1NC(=O)Nc1ccc2c(c1)CC(=O)N([C@H](C)CO)C[C@@H](C)[C@H](CN(C)C)O2	12
CO[C@@H]1CN(C)C(=O)c2cc(NC(=O)Cc3ccccc3)ccc2OC[C@H](C)N(C(=O)c2ccccc2F)C[C@H]1C	-1
Cc1cccc(S(=O)(=O)N2CC[C@@H]3[C@@H](CO)N(C)c4ccc(-c5ccccc5F)cc4[C@@H]32)c1	8
C[C@H](CO)N1C[C@H](C)[C@H](CN(C)Cc2ccc(F)cc2)Oc2ncc(-c3cccc(C(F)(F)F)c3)cc2C1=O	-1
COc1cccc(CN2CCCCN3[C@H](C2)[C@H](c2ccc(-c4cccnc4)cc2)[C@@H]3CO)c1	-16
O=C(C[C@H]1CC[C@@H]2[C@H](COC[C@@H](O)CN2S(=O)(=O)c2ccccc2Cl)O1)NCc1ccccc1Cl	11
C[C@H](CO)N1C[C@H](C)[C@H](CN(C)C(=O)Nc2ccc(F)cc2)Oc2c(NC(=O)c3ccncc3)cccc2C1=O	10
Cc1noc(C)c1S(=O)(=O)N(C)C[C@H]1Oc2ccc(NS(C)(=O)=O)cc2C(=O)N([C@@H](C)CO)C[C@H]1C	0
CCCNC(=O)N1[C@H](CO)[C@@H]2c3ccccc3N(C(=O)CC)C[C@@H]21	-9
C/C=C/c1ccc([C@@H]2[C@@H](CNC(=O)CC3CC3)N(C(=O)CC)[C@H]2CO)cc1	-7
CO[C@@H]1CN(C)C(=O)c2ccc(NC(=O)C3CC3)cc2OC[C@@H](C)N(C(=O)c2ccccc2)C[C@H]1C	8
C[C@@H]1CN([C@H](C)CO)C(=O)c2cc(NC(=O)CCN3CCOCC3)ccc2O[C@H]1CN(C)C(=O)NC1CCCCC1	6
C[C@@H]1CN([C@@H](C)CO)C(=O)c2cccc(NS(=O)(=O)c3ccc(F)cc3)c2O[C@@H]1CN(C)C	-4
OC[C@H]1[C@@H](c2ccc(C#Cc3ccccc3)cc2)[C@H]2CN(Cc3cncnc3)CCCCN21	4
CC(=O)N1CCCCN2[C@H](CO)[C@@H](c3ccc(-c4ccncc4)cc3)[C@H]2C1	3
CCC(=O)N1[C@H](CO)[C@H](c2ccc(-c3ccc(F)cc3)cc2)[C@H]1CNC(C)=O	2
C[C@H](CO)N1C[C@H](C)[C@H](CN(C)S(=O)(=O)c2cn(C)cn2)Oc2ccc(NC(=O)Cc3cn(C)c4ccccc34)cc2C1=O	11
CN(C)CCCNC(=O)C[C@H]1CC[C@@H]2[C@H](COc3ccc(NC(=O)C4CCC4)cc3C(=O)N2C)O1	-10
CCCNC(=O)Nc1ccc2c(c1)OC[C@H](C)N(C(=O)CC)C[C@H](C)[C@H](OC)CN(C)C2=O	9
C/C=C/c1ccc([C@@H]2[C@@H](CO)N(C(C)=O)[C@H]2CNC(=O)CC2CC2)cc1	-4
CO[C@@H]1CN(C)C(=O)c2cc(NC(=O)c3cc(C)on3)ccc2OC[C@H](C)N(C(C)=O)C[C@H]1C	0
COc1ccc(NC(=O)N(C)C[C@@H]2Oc3ccc(NC(=O)Cn4cnnn4)cc3C(=O)N([C@@H](C)CO)C[C@@H]2C)cc1	-7
O=C(C[C@@H]1CC[C@@H]2[C@H](COC[C@H](O)CN2S(=O)(=O)c2cccc(Cl)c2)O1)NCc1ccncn1	-9
C[C@H](CO)N1C[C@H](C)[C@H](CN(C)Cc2ccncc2)Oc2c(NS(=O)(=O)c3cccs3)cccc2C1=O	-17
COCCN(C[C@H]1[C@H](c2ccccc2)[C@@H](CO)N1C(C)=O)C(=O)c1ccncc1	-4
Cc1cc(C(=O)Nc2cccc3c2O[C@H](CN(C)C(=O)Nc2ccc(F)cc2)[C@@H](C)CN([C@@H](C)CO)C3=O)n(C)n1	-10
CO[C@@H]1CN(C)C(=O)c2cc(NS(C)(=O)=O)ccc2OC[C@H](C)N(C(=O)c2ccc3c(c2)OCO3)C[C@@H]1C	-7
CN(C[C@H]1N[C@@H](CO)[C@@H]1c1ccc(C2=CCCC2)cc1)C(=O)c1cccc(F)c1	-14
COc1cccc(S(=O)(=O)N2CCCCN3[C@H](C2)[C@H](c2ccc(C4=CCCCC4)cc2)[C@@H]3CO)c1	2
CCCNC(=O)C[C@@H]1CC[C@@H]2[C@H](COC[C@H](O)CN2C(=O)Nc2c(C)noc2C)O1	-11
COc1ccc(NC(=O)N(C)C[C@@H]2OCc3ccccc3-c3c(n(C)c4ccccc34)C(=O)N([C@@H](C)CO)C[C@@H]2C)cc1	4
CCCNC(=O)C[C@@H]1CC[C@@H]2[C@H](COc3ccc(NC(=O)c4cccs4)cc3C(=O)N2C)O1	-15
COc1cccc(S(=O)(=O)N2CCCCN3[C@H](CO)[C@H](c4ccc(-c5ccncc5)cc4)[C@H]3C2)c1	-12
CC(C)NC(=O)N(C)C[C@H]1Oc2ccc(NC(=O)c3ccncc3)cc2CC(=O)N([C@@H](C)CO)C[C@@H]1C	2
C[C@@H]1CN([C@H](C)CO)C(=O)c2cc(NC(=O)Nc3ccc(F)cc3)ccc2O[C@H]1CN(C)Cc1ccc2c(c1)OCO2	13
COCC#Cc1ccc([C@H]2[C@H]3CN(Cc4cncnc4)CCCCN3[C@H]2CO)cc1	-8

(list continues)
SMILES	Yeast UUG start
O=C(C[C@H]1CC[C@@H]2[C@H](COC[C@H](O)CN2C(=O)Cc2ccccc2)O1)NC1CCC1	11
C[C@H]1CN([C@@H](C)CO)C(=O)c2cccc(NS(=O)(=O)c3cccs3)c2O[C@@H]1CN(C)Cc1ccc(C(=O)O)cc1	-4
O=C(Nc1ccccc1)N1CCCCN2[C@H](C1)[C@H](c1ccc(-c3ccncc3)cc1)[C@@H]2CO	-1
Cc1ccc(S(=O)(=O)N(C)C[C@@H]2Oc3ccc(NC(=O)Cc4ccccc4)cc3C(=O)N([C@@H](C)CO)C[C@H]2C)cc1	7
O=C(c1ccc(F)cc1)N(CC1CCC1)C[C@H]1N[C@@H](CO)[C@H]1c1ccccc1	-2
COCC(=O)Nc1ccc2c(c1)C(=O)N(C)C[C@H](OC)[C@H](C)CN(C(=O)c1cnccn1)[C@@H](C)CO2	3
CCS(=O)(=O)N1CCCCN2[C@H](C1)[C@H](c1ccc(-c3ccccc3)cc1)[C@@H]2CO	-9
C[C@@H]1CN([C@@H](C)CO)C(=O)c2cc(NC(=O)Cc3cn(C)c4ccccc34)ccc2O[C@@H]1CN(C)Cc1ccc2c(c1)OCO2	14
CN1C(=O)c2cc(NS(=O)(=O)c3cccc(F)c3)ccc2OC[C@H]2O[C@H](CC(=O)O)CC[C@H]21	31
COc1ccc(-c2ccc3c(c2)[C@@H]2[C@@H](CCN2C(=O)Cc2ccccn2)[C@@H](CO)N3C)cc1	-8
C/C=C/c1ccc([C@H]2[C@@H](CO)N(C(=O)CC)[C@H]2CNC(=O)CC)cc1	1
Cn1cnc(S(=O)(=O)N2CCCCN3[C@H](CO)[C@@H](c4ccc(-c5ccccc5F)cc4)[C@H]3C2)c1	5
CC(=O)N(C)C[C@@H]1[C@@H](c2ccc(C3=CCCC3)cc2)[C@@H](CO)N1CC1CC1	-1
OC[C@H]1[C@H](c2ccc(/C=C/c3ccccc3)cc2)[C@H]2CN(Cc3cccnc3)CCCCN21	-12
CCCNC(=O)C[C@@H]1CC[C@H]2[C@H](COc3ccc(NC(=O)NC(C)C)cc3C(=O)N2C)O1	-3
C[C@H]1CN([C@@H](C)CO)C(=O)c2cc(NC(=O)NC3CCCCC3)ccc2O[C@H]1CN(C)S(=O)(=O)c1ccc(Cl)cc1	2
CC(C)NC(=O)N1[C@H](CO)[C@@H]2c3ccccc3N(C(=O)Nc3ccc(F)cc3)C[C@@H]21	-3
CO[C@@H]1CN(C)C(=O)c2ccc(NC(C)=O)cc2OC[C@H](C)N(CCC(F)(F)F)C[C@H]1C	-5
CCCNC(=O)[C@@H]1[C@@H](CO)[C@@H]2Cn3c(cccc3=O)[C@@H]2N1C(=O)C1CCC1	0
CCC(=O)N1C[C@@H](C)[C@@H](OC)CN(C)C(=O)c2cc(NC(=O)Nc3ccc(Cl)cc3)ccc2OC[C@H]1C	-2
O=C(Nc1ccccc1F)N1CCCCN2[C@H](C1)[C@@H](c1ccc(/C=C/c3ccccc3)cc1)[C@@H]2CO	0
CO[C@@H]1CN(C)C(=O)c2ccc(NC(=O)Nc3ccccc3Cl)cc2OC[C@@H](C)N(C)C[C@H]1C	-1
COc1ccc(CN(C)C[C@@H]2Oc3c(NC(=O)c4cnccn4)cccc3C(=O)N([C@H](C)CO)C[C@H]2C)cc1	-9
COc1ccc(-c2ccc3c(c2)[C@H]2[C@H](CCN2S(=O)(=O)c2ccc(OC)cc2)[C@H](CO)N3)cc1	-4
O=C(C[C@@H]1CC[C@@H]2[C@H](COC[C@@H](O)CN2Cc2ccc(F)cc2)O1)NCCc1ccccc1	-11
C[C@H]1CN([C@@H](C)CO)C(=O)c2ccccc2-c2ccccc2CO[C@H]1CN(C)Cc1ccc(O)cc1	-6
COCC(=O)N1CC[C@@H]2[C@H](CO)Nc3ccc(C#Cc4ccc(OC)cc4)cc3[C@@H]21	-1
Cc1ccc(S(=O)(=O)N(C)C[C@H]2Oc3ccc(NC(=O)C4CC4)cc3CC(=O)N([C@H](C)CO)C[C@@H]2C)cc1	52
CCOC(=O)N(C)C[C@@H]1OCc2ccccc2-c2c(n(C)c3ccccc23)C(=O)N([C@@H](C)CO)C[C@@H]1C	17
COc1ccc(C#Cc2ccc([C@H]3[C@@H](CO)N4CCCCN(S(=O)(=O)c5cn(C)cn5)C[C@H]34)cc2)cc1	7
C[C@@H]1CN([C@@H](C)CO)C(=O)c2cc(NC(=O)CCCN(C)C)ccc2O[C@@H]1CN(C)S(=O)(=O)c1ccc(F)cc1	-4
CN1[C@H](C(=O)NC2CCC2)[C@@H](CO)[C@@H]2Cn3c(ccc(/C=C/c4ccccc4)c3=O)[C@@H]21	2
O=C(c1ccncc1)N1C[C@@H]2[C@H](c3ccccc31)[C@@H](CO)N2C(=O)c1ccccc1F	-18
CCC(=O)N1C[C@H](C)[C@@H](OC)CN(C)C(=O)c2ccc(NC(=O)c3ccc(F)cc3)cc2OC[C@H]1C	3
CCCNC(=O)Nc1ccc2c(c1)OC[C@H](C)N(Cc1ccncc1)C[C@H](C)[C@@H](OC)CN(C)C2=O	4
Cc1ccc(S(=O)(=O)N(C)C[C@@H]2Oc3ccc(NC(=O)C4CC4)cc3C(=O)N([C@@H](C)CO)C[C@@H]2C)cc1	-1

9 compounds from above, ordered by count of non-hydrogen atoms, lowest first:
SMILES	Yeast UUG start
COCC(=O)N1CC[C@@H]2[C@H](CO)Nc3ccc(C#Cc4ccc(OC)cc4)cc3[C@@H]21	-1
CN1[C@H](C(=O)NC2CCC2)[C@@H](CO)[C@@H]2Cn3c(ccc(/C=C/c4ccccc4)c3=O)[C@@H]21	2
O=C(C[C@@H]1CC[C@@H]2[C@H](COC[C@@H](O)CN2Cc2ccc(F)cc2)O1)NCCc1ccccc1	-11
COc1ccc(-c2ccc3c(c2)[C@H]2[C@H](CCN2S(=O)(=O)c2ccc(OC)cc2)[C@H](CO)N3)cc1	-4
C[C@H]1CN([C@@H](C)CO)C(=O)c2ccccc2-c2ccccc2CO[C@H]1CN(C)Cc1ccc(O)cc1	-6
Cc1ccc(S(=O)(=O)N(C)C[C@@H]2Oc3ccc(NC(=O)C4CC4)cc3C(=O)N([C@@H](C)CO)C[C@@H]2C)cc1	-1
Cc1ccc(S(=O)(=O)N(C)C[C@H]2Oc3ccc(NC(=O)C4CC4)cc3CC(=O)N([C@H](C)CO)C[C@@H]2C)cc1	52
COc1ccc(CN(C)C[C@@H]2Oc3c(NC(=O)c4cnccn4)cccc3C(=O)N([C@H](C)CO)C[C@H]2C)cc1	-9
C[C@@H]1CN([C@@H](C)CO)C(=O)c2cc(NC(=O)CCCN(C)C)ccc2O[C@@H]1CN(C)S(=O)(=O)c1ccc(F)cc1	-4

Assay outcomes deposited in PubChem BioAssay by Broad Institute.
